# High-throughput results from PubChem BioAssay.
# ALR H2O2 inh: inhibitors of human ALR sulfhydryl oxidase, primary screen, biochemical, H2O2 detection, HRP-luminol luminescence, single point. purified ALR, DTT oxidation. FAD-linked sulfhydryl oxidase ALR (Homo sapiens), P55789. inhibition, % (test concentration not listed). 290,000 compounds, 3.8% hits;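 active means mean and each replicate at 75% or more; inconclusive means only one of the two met; inactive means neither met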;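 further: stock transfer was 7.5 nL into about 7.5 µL; 0% = neutral wells and 100% = wells with inactivated enzyme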
# Target sequence (P55789 whole entry, looked up): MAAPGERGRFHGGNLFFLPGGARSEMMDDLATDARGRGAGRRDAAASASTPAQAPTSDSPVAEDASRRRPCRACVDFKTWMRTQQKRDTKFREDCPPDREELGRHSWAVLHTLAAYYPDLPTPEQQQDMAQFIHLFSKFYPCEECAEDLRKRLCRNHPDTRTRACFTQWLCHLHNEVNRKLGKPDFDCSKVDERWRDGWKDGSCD
# MLL AF4-AF9 inh: inhibitors of AF4 peptide binding to AF9, primary screen, biochemical, AlphaScreen, biotin-AF4 peptide, FLAG-AF9, single point; inhibition, % at 10 µM; 350,000 compounds, 0.47% hits; AID 651704, 2012;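 active means every replicate reaching a set inhibition limit, whatever the replicate mean, cut at about 25% in these data; inconclusive means mean inhibition reaches that limit but some replicates miss it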;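 further: 0% = plate neutral control median and 100% = total signal loss; the record names both 10 and 1 µM as test concentration; the first replicate is given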
# Vif TR-FRET: inhibitors of Vif binding to APOBEC3G peptide, primary screen, biochemical, TR-FRET, GST-Vif 1-94, biotin-A3G peptide, dose response retest (AID 1117319); 260,000 compounds, 0.57% hits; TR-FRET GST-Vif / biotin-A3G peptide binding; higher % means a stronger effect; test concentration not given here; strong numbers were not always called active; one-dose inhibition, %; IC50 in µM for titrated hits;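 active means above the screen mean plus three standard deviations and confirmed in dose response; inconclusive means results disagree or hit not tested in dose response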;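 further: Vif residues 1-94 fused to GST binding biotinylated APOBEC3G peptide 110-148; 0% = full assay without inhibitor and 100% = GST in place of GST-Vif; retest series ran down from 100 µM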
# FGF22 binding: binders of human FGF22 protein, primary screen, FGF22 synaptogenesis inhibitor project, biophysical, thermal shift, single point; recombinant FGF22 thermal shift, SYPRO orange fluorescence; percent of sucrose octasulfate shift, DMSO zero; calls only at 9.99 µM; 340,000 compounds, 1.5% hits; AID 651658, 2012;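 active means melting point raised past a set limit in the mean and every replicate; inconclusive means no clear call; three in four hits are not shown here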
# Target sequence (Q9HCT0 whole entry, looked up): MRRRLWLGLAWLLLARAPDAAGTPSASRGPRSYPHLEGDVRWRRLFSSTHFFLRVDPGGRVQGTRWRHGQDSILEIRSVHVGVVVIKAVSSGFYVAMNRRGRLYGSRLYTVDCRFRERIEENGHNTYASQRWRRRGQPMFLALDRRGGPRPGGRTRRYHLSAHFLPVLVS
# HNF4A DNA FP: change in binding of human HNF4A to DNA, primary screen, biochemical, fluorescence polarization, FITC-DNA; Hepatocyte nuclear factor 4-alpha (Homo sapiens), P41235; 1 h; activity change, % at 10 µM; 360,000 compounds, 0.3% hits; in the data active means activity change above about 30%, passing the limit was not always enough;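 further: controls were the assay level and a saturating level of protein; the project sought stronger binding though the title names inhibitors; some compounds called inactive have numbers as strong as hits; positive values seem to mean higher polarization but the record does not say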
# Target sequence (P41235 whole entry, looked up): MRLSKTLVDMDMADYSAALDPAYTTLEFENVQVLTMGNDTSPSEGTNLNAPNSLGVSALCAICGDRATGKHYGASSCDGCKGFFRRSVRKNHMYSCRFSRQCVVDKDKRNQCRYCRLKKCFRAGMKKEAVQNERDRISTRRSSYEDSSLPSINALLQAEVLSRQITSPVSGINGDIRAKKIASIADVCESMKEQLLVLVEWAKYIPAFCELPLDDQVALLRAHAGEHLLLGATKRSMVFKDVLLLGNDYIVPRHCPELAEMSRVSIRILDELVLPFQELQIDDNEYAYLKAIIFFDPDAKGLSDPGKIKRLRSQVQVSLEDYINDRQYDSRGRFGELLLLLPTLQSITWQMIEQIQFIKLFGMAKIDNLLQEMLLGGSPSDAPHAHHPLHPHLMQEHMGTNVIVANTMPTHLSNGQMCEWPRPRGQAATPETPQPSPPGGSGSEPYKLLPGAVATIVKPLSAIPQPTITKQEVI
# Ecoli growth: E. coli growth inhibition, primary screen, OD600 | Escherichia coli growth, 23 h; active compounds read low | OD600 absorbance (no concentration beside the values) | 330,000 compounds, 0.21% hits | AID 1053175, 2014;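 active means OD600 absorbance below the run mean of sample wells minus 3.6 SD, in any replicate, cut at about 0.56 in these data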;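 further: stock transfer was 300 nL into about 60 µL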
# Ecoli rRNA inh: reduced GFP signal of wild-type E. coli, primary screen, bacterial rRNA inhibitor project, GFP/RFP fluorescence, OD600, single point | E. coli WT GFP vs humanized-ribosome RFP mutants, 24 h; active compounds read low; DMSO median 0, no signal -100 | GFP signal change (wild-type ribosome), % (concentration not given with the values) | 350,000 compounds, 1.6% hits | AID 720706, 2013;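 active means significant combined selectivity score with lowered wild-type GFP, culture density cut under 30%, mutant RFP and density less affected; inactive means any of these conditions unmet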; further: one replicate is shown; some compounds called inactive have numbers as strong as hits
# Ecoli rRNA inh OD600: further read-out of Ecoli rRNA inh, marked with its call; OD600 change, %; measured here: OD600 growth;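 optical density of the mix in the first replicate; 0 = DMSO median and -100 = no signal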
# Ecoli rRNA inh RFP: further read-out of Ecoli rRNA inh, marked with its call; RFP signal change, %; measured here: RFP humanized mutant strains;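 first replicate; 0 = DMSO median and -100 = no signal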
# * marks the source's active call; other numbers are inactive results; i = inactive; ? = inconclusive; nt = no result given; & = joins results of further samples.
SMILES,ALR H2O2 inh,MLL AF4-AF9 inh,Vif TR-FRET,FGF22 binding,HNF4A DNA FP,Ecoli growth,Ecoli rRNA inh,Ecoli rRNA inh OD600,Ecoli rRNA inh RFP
COc1ccc(/C=C/C(=O)OCC(=O)Nc2cccc(Oc3ccccc3)c2)c(OC)c1,3,-3.9,6%,i,0.1,0.73,3,6,7.3
Cc1cccn2c(=O)c3cc(S(=O)(=O)c4ccc(Br)cc4)c(=N)n(C4CCCCC4)c3nc12,-2,-1.3,-1%,i,3.3,0.67,2,10,-2.7
CC(C)Oc1ccc(S(=O)(=O)N2CCOCC2)cc1NC(=O)CCCSc1ccccc1,nt,0.6,2%,i,-3.0,0.68,-3,-8,2.4
CCCn1c(=O)[nH]c(=O)c2c1nc(-c1ccccc1)n2CCN1CCOCC1,-4,nt,0%,nt,-0.7,0.71,nt,nt,nt
S=C1NCN(Cc2ccco2)CN1CCc1ccccc1,nt,2.7,-7%,i,-2.5,0.62,nt,nt,nt
CC(=O)c1c(C)oc2ccc(N(C(=O)c3ccncc3)S(=O)(=O)c3ccccc3)cc12,29,-1.6,-9%,i,-0.7,0.72,2,6,3.3
Cc1oc(-c2ccccc2Cl)[n+]([O-])c1C,-2,nt,3%,nt,0.6,0.69,2,9,2.8
Cc1ccc2nsnc2c1S(=O)(=O)N1CCCC1C(=O)O (configuration not stated),-1,-10,nt,nt,0.9,0.65,5,11,-1.7
O=C(/C=C/c1cccc([N+](=O)[O-])c1)N1CCN(S(=O)(=O)c2cccs2)CC1,-1,-1.0,24%,i,-3.1,0.7,8,22,1.9
COc1cc(C(=O)Nc2sc3c(c2C#N)CCN(C(C)=O)C3)cc(OC)c1OC,-193,-21,?,i,9.5,0.76,-6,1,2.6
Cc1cccc(C)c1NC1=NC(=S)N(c2ccccc2)C12CCOC(C)(C)C2 (configuration not stated),-5,nt,2%,nt,-2.3,0.73,nt,nt,nt
COC(=O)/C(=C\C(=O)c1ccccc1)Nc1cccc(C(F)(F)F)c1,1,nt,4%,nt,-2.1,0.7,nt,nt,nt
CC(OC(=O)c1cccs1)C(=O)Nc1nc(-c2ccccc2)cs1 (configuration not stated),-7,-1.7,nt,i,-0.6,0.66,-24,-36,-6.0
O=C(C[C@H]1CC[C@@H]2[C@H](COC[C@H](O)CN2Cc2ccc(Oc3ccccc3)cc2)O1)N1CCOCC1,nt,-1.8,nt,i,nt,nt,-4,-19,18
CC(C)c1ccc(C(=O)CSc2ncn[nH]2)cc1,10,-5.3,-2%,i,-2.1,0.65,14,-3,0.6
COc1cccc(OCC(=O)NNC(=O)CCc2ccccc2)c1,-6,-0.2,2%,nt,-2.2,0.67,-9,3,7.3
Cc1ccc(S(=O)(=O)NC(=O)C2CCCCC2)cc1,0,-9.1,-8%,i,-4.3,0.67,0,-1,-1.9
CC(=O)Oc1ccc(C(=O)Nc2cccc(-c3nnc(-c4ccco4)o3)c2)cc1,nt,nt,-4%,i,-5.6,0.63,0,-8,12
CCOC(=O)N1CCN(Cc2nc(-c3ccc(OC)cc3)no2)CC1,0,2.0,-13%,i,4.5,0.77,11,3,4.4
Cc1cc(C)nc(SCc2nc(N)nc(-c3ccccc3O)n2)n1,-4,nt,1%,nt,2.5,0.71,nt,nt,nt
O=C(Nc1cccc(Cl)c1)N[C@H]1CC[C@@H](CCn2cc(Cc3ccccc3)nn2)O[C@@H]1CO,nt,2.2,nt,i,nt,nt,-23,-42,-0.8
Clc1nccc(NCc2ccccc2)n1,-7,-2.8,nt,nt,1.6,0.64,7,11,-0.8
COCCNC(=O)c1cccc(S(=O)(=O)N2CC3(C)CC2CC(C)(C)C3)c1 (configuration not stated),-14,-13,0%,i,-3.7,0.64,-9,-8,1.7
O=C(COC(=O)c1ccc(F)cc1F)Nc1cccc(S(=O)(=O)N2CCOCC2)c1,nt,0.8,-5%,i,2.6,0.72,-4,-5,-0.7
Cc1cc([N+](=O)[O-])ccc1NC(=O)CSc1nncn1-c1cccnc1,-6,-0.4,nt,i,-1.8,0.66,11,-2,2.4
COc1ccc(OC)c(S(=O)(=O)Nc2ccc3oc4c(c3c2)C(=O)CCC4)c1,-19,nt,-3%&-1%,nt,1.8,0.72,nt,nt,nt
Cc1noc(C)c1NC(=O)N(C)C[C@H]1Oc2ccc(NS(C)(=O)=O)cc2C(=O)N([C@H](C)CO)C[C@H]1C,nt,-1.7,nt,i,nt,nt,3,-8,0.5
COc1ccc(CCNC(=O)c2cc3c(=O)n(C)c4ccccc4c3n2C)cc1OC,0,-0.4,nt,i,-2.6,0.69,6,8,3.1
CCC(=O)Nc1ccc2c(c1)OC[C@@H](C)N(C(=O)CN1CCOCC1)C[C@H](C)[C@@H](OC)CN(C)C2=O,nt,0.3,nt,i,nt,nt,0,-5,-0.4
O=C(Nc1ccc(F)cc1)N[C@@H]1C=C[C@@H](CC(=O)N2CCCCC2)O[C@H]1CO,nt,-1.1,nt,i,nt,nt,2,8,-1.2
CC(C)CC(=O)NC(=S)Nc1cccc(NC(=O)c2ccccc2Cl)c1,-6,nt,6%,nt,3.2,0.72,nt,nt,nt
CC1CN(C(=O)CCC(=O)N2CCCCC2)c2ccccc2O1 (configuration not stated),0,-112,nt,i,-15,0.7,nt,nt,nt
CC(C)C[C@@H]1Cc2[nH]c(=S)[nH]c(=O)c2[C@H](C)O1,nt,-0.9,nt,i,2.0,nt,8,6,-0.9
C[C@@H]1CN([C@@H](C)CO)S(=O)(=O)c2ccc(C#Cc3ccccc3F)cc2O[C@@H]1CN(C)C(=O)Cc1cccnc1,nt,-1.1,nt,i,nt,nt,-1,-10,5.6
Fc1ccc(-c2csc(N3CCOCC3)n2)cc1,-6,2.2,nt,i,-2.1,0.69,-1,1,2.8
Cc1occc1C(=O)NC1CCCN(Cc2ccc(Cl)cc2)C1 (configuration not stated),1,5.4,nt,i,7.2,0.68,4,-4,2.0
CCC(=O)Nc1cccc(C(=O)OCC(=O)c2ccccc2Cl)c1,1,nt,-3%,nt,-0.3,0.71,nt,nt,nt
C[C@H]1CN([C@@H](C)CO)C(=O)c2cc(C#CCC3CCCC3)cnc2O[C@H]1CN(C)C(=O)c1cnccn1,nt,-6.1,nt,i,nt,nt,2,-7,-1.4
O=C(NC1CCS(=O)(=O)C1)c1cnccn1 (configuration not stated),-2,nt,-1%,nt,-1.1,0.67,nt,nt,nt
CCCOc1ccc(C(=O)ON=C2CCN(C)CC2)cc1,-9,0.6,5%,i,0.1,nt,7,-2,-0.1
COc1cnc(-c2ccccc2)nc1OC,1,-1.9,-6%,i,0.2,0.6,4,0,-7.0
COc1ccc(CN(C)C(=O)Cc2c[nH]c3ccccc23)cc1,1,-8.7,-4%,i,-1.6,0.66,-12,-12,3.7
FC(F)(F)c1nnc2ccc(N3CCOCC3)nn12,-1,nt,?,nt,-0.9,0.72,nt,nt,nt
CCNc1nc(NCC)n2c(SCc3nc4ccccc4c(=O)[nH]3)nnc2n1,-41,nt,-3%&0%,nt,-3.5,0.66,nt,nt,nt
NC(=O)c1nsc(C(=O)N(c2ccc(F)cc2)C(C(=O)NC2CCCC2)c2ccncc2)c1N (configuration not stated),0,0.6,22%,i,1.0,0.7,3,8,-1.4

# Structural class: the compounds so far with a CF3 group (2)
SMILES,ALR H2O2 inh,MLL AF4-AF9 inh,Vif TR-FRET,FGF22 binding,HNF4A DNA FP,Ecoli growth,Ecoli rRNA inh,Ecoli rRNA inh OD600,Ecoli rRNA inh RFP
COC(=O)/C(=C\C(=O)c1ccccc1)Nc1cccc(C(F)(F)F)c1,1,nt,4%,nt,-2.1,0.7,nt,nt,nt
FC(F)(F)c1nnc2ccc(N3CCOCC3)nn12,-1,nt,?,nt,-0.9,0.72,nt,nt,nt

# (list continues)
SMILES,ALR H2O2 inh,MLL AF4-AF9 inh,Vif TR-FRET,FGF22 binding,HNF4A DNA FP,Ecoli growth,Ecoli rRNA inh,Ecoli rRNA inh OD600,Ecoli rRNA inh RFP
O=C(C[C@@H]1C[C@@H]2c3cc(NC(=O)C4CCOCC4)ccc3O[C@@H]2[C@H](CO)O1)NCc1ccccc1F,nt,-1.5,nt,i,nt,nt,4,5,-2.2
COc1cc(CNC(=O)C2CCCC2)cc(OC)c1OC,-5,-1.5,9%,i,-3.0,0.67,-21,-17,11
C=C(C)CN1C(=O)C(=O)N(CC(=C)C)C1=O,-2,-0.6,2%,i,nt,0.69,1,11,0.1
Cc1ccc(N2C(=O)c3n[nH]c(C)c3C2c2ccccn2)cc1 (configuration not stated),-3,nt,4%,nt,0.2,0.64,nt,nt,nt
Cc1ccc(S(=O)(=O)CCC(=O)Oc2ccc(-c3nnco3)cc2)cc1,16,-4.3,-12%,i,2.5,0.64,13,10,-2.5
CCCNC(=O)C[C@H]1C[C@H]2c3cc(NS(=O)(=O)c4ccc(F)cc4)ccc3O[C@H]2[C@H](CO)O1,nt,-0.5,nt,i,nt,nt,2,-10,14
CS(=O)(=O)c1ccc(NC(=O)c2cccc(-n3cnnn3)c2)cc1,nt,0.2,-5%,i,-2.4,0.63,-4,-5,3.3
CS(=O)(=O)N(Cc1ccco1)CC(O)Cn1c2ccccc2c2ccccc21 (configuration not stated),-16,nt,12%,nt,-0.4,0.72,nt,nt,nt
Cc1ccc(CNC(=O)Cc2ccc(-n3cccc3)cc2)cc1,nt,nt,-6%,nt,-0.1,0.72,nt,nt,nt
NCCN1CCN(S(=O)(=O)c2ccc([N+](=O)[O-])cc2)C=C1c1ccc(Cl)cc1,6,9.1,nt,i,3.9,0.69,12,15,4.1
C[C@@H]1CN([C@H](C)CO)C(=O)CCCn2cc(nn2)CO[C@@H]1CN(C)C(=O)Nc1ccc2c(c1)OCCO2,nt,0.0,nt,i,nt,nt,1,3,1.6
CC(=O)c1cccc(NC(=O)Nc2ccc(C(=O)N3CCOCC3)cc2)c1,2,nt,?,nt,3.0,0.66,nt,nt,nt
CCn1c(=O)cc(OCC(=O)O)c2ccccc21,-2,nt,3%,nt,2.0,0.75,nt,nt,nt
COc1ccc(CCN2CC(C(=O)N3CCC(O)(c4ccccc4)CC3)CCC2=O)cc1 (configuration not stated),-24,-1.4,7%,i,2.4,0.7,11,7,0.7
Cc1oc(-c2ccccc2Cl)nc1CN1CCCCC1CO (configuration not stated),-1,-0.6,6%,i,0.1,0.71,6,5,-0.3
COc1ccc(CN2[C@@H](CO)[C@@H]3c4ccccc4N(C(=O)CC(F)(F)F)C[C@@H]32)cc1,nt,-0.2,nt,i,nt,nt,-10,-12,-0.5
O=C(CC1SCCNC1=O)Nc1cccc([N+](=O)[O-])c1 (configuration not stated),0,6.3,8%,i,0.5,0.64,13,11,-0.2
Cc1c(NS(=O)(=O)c2ccc(N3CCCCC3)c([N+](=O)[O-])c2)c(=O)n(-c2ccccc2)n1C,-18,2.3,nt,i,1.1,0.66,10,12,7.9
O=C(COC(=O)c1ccc(O)cc1)Nc1ccc2c(c1)OCO2,-2,-1.3,0%,i,0.0,0.64,0,3,1.0
O=C(NCCN1CCOCC1)C(=O)NCC1OCCN1C(=O)c1ccc(Cl)cc1 (configuration not stated),-5,-4.9,nt,i,1.5,0.67,6,21,-2.9

# An excerpt; count on the stated rates, not on these rows.
